# Beta apoptosis: inhibitors of cytokine-induced beta cell apoptosis, primary screen, luminescence; INS-1E cytokine-induced death, ATP luminescence, 48 h; percent of positive-control rescue, neutral wells zero; 300,000 tested, 0.8% active; protection from apoptosis, % (concentration not given with the values);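 active means all replicates at 75% or more, or half of them and the mean; inconclusive means half reach 75% but not the mean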;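 further: 0% = cytokine-treated negative control wells and 100% = positive control rescue; higher means more ATP so stronger rescue from cytokine killing; wells of about 40 µL received 100 nL stock; the first replicate is given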
# Vif A3G: inhibitors of Vif binding to APOBEC3G peptide, primary screen, biochemical, TR-FRET, GST-Vif 1-94, biotin-A3G peptide, dose response retest (AID 1117319); Virion infectivity factor (Human immunodeficiency virus type 1 group M subtype B (isolate …; TR-FRET GST-Vif / biotin-A3G peptide binding; higher % means a stronger effect; test concentration not given here; strong numbers were not always called active; one-dose inhibition, %; IC50 in µM for titrated hits; 260,000 tested, 0.57% active;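 active means above the screen mean plus three standard deviations and confirmed in dose response; inconclusive means results disagree or hit not tested in dose response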;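 further: Vif residues 1-94 fused to GST binding biotinylated APOBEC3G peptide 110-148; 0% = full assay without inhibitor and 100% = GST in place of GST-Vif; retest series ran down from 100 µM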
# Bfl-1 A1 inh: caspase 3/7 activation in MEF A1-2A-BIM cells, primary screen, A1 inhibitor project, cell-based, luminescence, HTS | Caspase-Glo 3/7 luminescence, 3 h; percent of clofoctol response, vehicle zero | caspase activation, % (no concentration beside the values) | 330,000 tested, 0.066% active;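 active means over half of replicate activation scores above 10%, or exactly half above 10 with the replicate mean above 10; inconclusive means replicate mean below 10 yet half the replicates above 10; inactive means over half of replicates below 10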;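 further: wells of about 30 µL received 50 nL stock; many hits fall short of the cut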
# T cruzi repl: inhibitors of intracellular T. cruzi growth, primary screen, luminescence, NIH3T3 host cells; T. cruzi beta-gal in NIH3T3, 90 h; inhibition, % (concentration not given with the values); 300,000 tested, 1.4% active; AID 1885, 2009;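 active means mean inhibition across valid replicates above about 55%, limit read from the data; inconclusive means mean below that limit but half or more replicates reach it; inactive means mean below it, under half of replicates reach it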;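 further: signal also drops with host cell toxicity which is not excluded here; 0% = plate median of DMSO wells and 100% = zero luminescence signal; higher percent means less beta-gal luminescence so fewer parasites; stock transfer was 50 nL into about 50 µL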
# RanGTP-Impb inh: inhibitors of RanGTP-importin-beta interaction, primary screen, biochemical, FRET, CFP-Ran, YFP-importin-beta, homogeneous. Ran GTPase (GTP-bound) - importin-beta complex. AID 2216, 2009. inhibition, % (no concentration beside the values). 300,000 tested, 1.1% active. cell-free CFP-Ran/YFP-importin-beta FRET ratio;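 active means most replicates above 15%; inconclusive means exactly half above 15%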;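 further: 0% = DMSO wells and 100% = Ran loaded with GDP instead of GTP; wells of about 40 µL received 100 nL stock; the first replicate is given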
# LANA-H2A inh: blockers of LANA interaction with H2A/H2B – biochemical, FP readout, HTS, primary screen; Protein LANA1 (Human herpesvirus 8 type P (isolate GK18)), Q9QR71; cell-free LANA-H2A/H2B peptide, fluorescence polarization; 320,000 tested, 0.6% active; inhibition, % (no concentration beside the values); AID 2629, 2010; in the data active means inhibition mostly above about 10%, no sharp cut-off; inactive means mostly below about 6.7%;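 further: stock transfer was 7.5 nL into about 10 µL; 0% = median of vehicle wells and 100% = median of positive control wells; one replicate is shown; the record names a cut of 25% in any replicate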
# MLL AF4-AF9 inh: inhibitors of AF4 peptide binding to AF9, primary screen, biochemical, AlphaScreen, biotin-AF4 peptide, FLAG-AF9, single point | Protein AF-9 (Homo sapiens), P42568 | inhibition, % at 10 µM | 350,000 tested, 0.47% active | AID 651704, 2012;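 active means every replicate reaching a set inhibition limit, whatever the replicate mean, cut at about 25% in these data; inconclusive means mean inhibition reaches that limit but some replicates miss it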;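 further: 0% = plate neutral control median and 100% = total signal loss; the record names both 10 and 1 µM as test concentration; the first replicate is given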
# Target sequence (P42568 whole entry, looked up): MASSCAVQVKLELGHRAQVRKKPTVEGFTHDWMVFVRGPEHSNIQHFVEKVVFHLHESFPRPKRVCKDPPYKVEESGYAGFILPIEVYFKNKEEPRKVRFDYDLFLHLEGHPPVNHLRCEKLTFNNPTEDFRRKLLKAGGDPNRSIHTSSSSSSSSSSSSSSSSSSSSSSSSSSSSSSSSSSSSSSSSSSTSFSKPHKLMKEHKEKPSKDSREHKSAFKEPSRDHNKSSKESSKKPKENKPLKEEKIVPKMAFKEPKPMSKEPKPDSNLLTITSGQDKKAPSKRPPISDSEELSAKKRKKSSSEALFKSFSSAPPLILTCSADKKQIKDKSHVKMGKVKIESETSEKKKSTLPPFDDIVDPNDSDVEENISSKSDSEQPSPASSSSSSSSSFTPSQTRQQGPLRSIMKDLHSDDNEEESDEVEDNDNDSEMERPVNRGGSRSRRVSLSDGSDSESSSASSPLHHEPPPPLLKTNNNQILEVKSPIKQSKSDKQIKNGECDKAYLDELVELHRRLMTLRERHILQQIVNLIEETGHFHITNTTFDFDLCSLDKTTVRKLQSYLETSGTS
# Calb FLC: C. albicans growth inhibition with fluconazole, primary screen, CaCi-2 strain, Alamar Blue fluorescence | C. albicans CaCi-2 (fluconazole-resistant clinical isolate) + fluconazole, 48 h | growth inhibition, % (concentration not given with the values) | 300,000 tested, 0.57% active;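 active means most replicates above 75%; inconclusive means exactly half above 75%; inactive means most below 75%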;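 further: all wells also contain fluconazole at 8 µg/ml as a sub-toxic cotreatment; 0% = median of DMSO wells and 100% = median of geldanamycin control wells; wells of about 8 µL received 7.5 nL stock; the first replicate is given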
# * hit, by the source's call; i = inactive; u = inconclusive; x = no result given; & = joins results of further samples.
SMILES,Beta apoptosis,Vif A3G,Bfl-1 A1 inh,T cruzi repl,RanGTP-Impb inh,LANA-H2A inh,MLL AF4-AF9 inh,Calb FLC
CC(=O)Nc1ccc(C(=S)NCCCO)cc1,-5.0,0.3%,-0.9,-6.6,1.8,0.7,-1.8,-4.8
COc1ccc(NC(=S)SC)cc1OC,0.7,28.1%,-0.9,-17.8,2.4,-1.5,-2.3,-8.0
COCCN(Cc1ccccc1)C(=O)c1cccc(S(=O)(=O)N2CCCc3ccccc32)c1,-15.6,-9.8%,-1.3,x,x,-5.0,4.7,x
COC(=O)c1ccccc1NC(=S)N1CCN(c2ccccc2)CC1,-8.2,0.2%,0.0,2.3,2.4,1.1,5.2,8.3
CN(Cc1ccc(Cl)s1)C(=O)CNC(=O)CNC(=O)c1ccc(Cl)cc1Cl,-2.2,3.1%,0.9,x,x,-114.6,-2.1,x
CN(Cc1ccon1)C(=O)CC1C(=O)NCCN1Cc1ccc(Cl)c(F)c1 (stereo not drawn),0.7,x,-0.4,6.4,-0.9,-2.9,-11.6,9.8
O=C(CN1CCN(S(=O)(=O)c2ccc(Br)cc2)CC1)Nc1ccc(F)cc1F,-1.1,-0.7%,0.0,14.1,u,-2.3,x,-5.4
O=S(=O)(NCc1ccccc1)c1ccc(-c2cnc(C3CC3)o2)cc1,8.3,x,-1.6,0.4,6.8,-5.1,-0.8,-4.0
COc1ccc(/C=C/C(=O)Oc2cccc(/C=N/NC(=O)COc3c(C)cccc3C)c2)cc1,11.3,-5.6%,0.1,-21.1,3.8,1.8,x,-12.2
Cc1cccc(OCCn2c(=O)n(C)c3ccccc32)c1,-4.8,1.9%,-1.9,-6.4,-2.2,1.4,-3.6,23.5
COc1ccc(N2CCN(C(=O)c3cccnc3SCc3cccc(Br)c3)CC2)cc1,-2.8,16.3%,0.2,33.3,-2.4,i,9.4,32.7
Cc1ccc(NC(=O)CSc2nc(N)c3cc4c(nc3n2)CCCC4)cc1,-3.3,21.3%,0.7,-19.5,-2.5,x,1.1,37.2
COc1ccc(OCCOc2ccc(/C=C3\C(=N)N4N=C(C)SC4=NC3=O)cc2)cc1,0.6,x,-1.2,x,x,-2.6,-5.0,x
O=C(CCn1cncn1)N1CCCC(N2CCN(c3ccc(F)cc3)CC2)C1 (stereo not drawn),1.7,x,0.7,-8.3,2.3,-1.4,0.2,1.2
CCOC(=O)c1c(-c2ccccc2)oc2ccc(OCC(=O)O)cc12,-4.7,x,-0.6,13.2,0.5,-7.0,-2.5,2.8
Cc1c(NC(=O)C2CCN(S(=O)(=O)c3cccs3)CC2)c(=O)n(-c2ccccc2)n1C,5.1,-5.9%,0.2,-8.9,u,1.0,4.8,14.0
BrC(=C\c1ccccc1)/C=N/Nc1nc(N2CCOCC2)nc(N2CCOCC2)n1,-3.1,x,-0.1,-38.5,6.7,-0.1,7.3,-0.9
CCN(CC(=O)Nc1c(F)cccc1F)C(=O)c1cccc(-n2cccc2)c1,x,20.9µM*,-0.6,5.7,-1.5,-0.5,4.7,-1.6
Cn1nccc1CNC(=O)c1ccnn1C,-0.1,u,0.0,-1.2,-4.5,4.0,x,-20.0
O=C(COC(=O)c1cccnc1SCC(=O)NCc1ccccc1)NCc1ccccc1,-5.1,-38.2%,0.5,-11.0,0.0,-7.4,x,-3.5
COc1ccc(-c2nc(C)c(C(C)=O)n2O)cc1OC,3.4,6.2%,0.3,-11.9,3.4,-1.3,-4.2,11.2
Cc1ccc(C(=O)Nc2cccc3ccccc23)cc1,x,-5.7%,-0.2,-16.9,-1.7,-2.3,0.3,2.5
Cc1onc(-c2c(Cl)cccc2Cl)c1C(O)c1ccccc1 (stereo not drawn),-4.2,2.4%,0.4,3.5,1.0,-5.2,0.8,4.5
Cc1cc(C)c(NC(=O)COC(=O)/C=C/c2cccc(C(F)(F)F)c2)c(C)c1,-0.3,-1.4%,-2.3,-3.3,4.3,-1.5,6.8,1.1
Cc1nn(-c2ccccc2)c(C)c1C(=O)OCC(=O)N(C)c1c(N)n(Cc2ccccc2)c(=O)[nH]c1=O,-3.4,2.5%,1.0,-2.9,1.6,2.5,-0.1,3.0
# Carrying on:
SMILES,Beta apoptosis,Vif A3G,Bfl-1 A1 inh,T cruzi repl,RanGTP-Impb inh,LANA-H2A inh,MLL AF4-AF9 inh,Calb FLC
O=C(NNC(=O)c1cc(-c2ccccc2)nc2ccccc12)Nc1cccc(Cl)c1,3.4,-1.4%,2.0,24.5,0.2,0.6,x,32.7
CN(CCNC(=O)c1cc2c(=O)n(C)c3ccccc3c2n1C)Cc1ccccc1,6.7,0.0%,0.6,46.5,u,-2.1,-0.9,22.7
O=C(c1cccc([N+](=O)[O-])c1)c1ccc2c(c1)C(=O)N(c1c[nH]c(=O)[nH]c1=O)C2=O,-0.9,3.7%,0.3,-15.3,-2.7,4.3,x,-25.3
CCCCNc1nc2c(-c3ccccc3)nnn2c2ccccc12,-2.9,-1.0%,-0.2,3.6,4.5,-2.8,2.1,4.2
Brc1ccc(Cn2c(-c3ccc(Br)o3)nc3ccccc32)o1,x,7.5%,x,21.4,-0.6,x,x,0.4
O=C(COc1cccc2ccccc12)N/N=C/C=C/c1ccccc1,-4.2,-3.3%,0.7,-3.0,0.3,-1.8,x,33.5
CCOC(=O)NCC(C)(C)CNC(=O)OCC,-10.6,0.3%,0.7,0.5,-2.0,3.1,x,-5.5
CCCn1c(SCC(=O)Nc2nnc(CC)s2)nnc1-c1ccco1,-4.3,-0.2%,-0.4,-4.1,1.6,3.2,x,-1.7
COc1ccc(CCN(Cc2cccs2)S(=O)(=O)c2ccc(C(=O)O)cc2)cc1OC,-0.3,-0.5%,0.0,-7.7,0.2,0.6,0.2,u
Cc1ccc(OCCn2c(=O)sc3ccccc32)cc1,5.1,-2.0%,0.5,16.9,-2.7,-5.7,x,-34.9
COc1ccc(Cn2nnnc2CN2CCC(c3nc4ccccc4s3)CC2)cc1,15.8,-2.2%,-0.4,30.8,2.7,-4.0,x,-2.3
CCn1cc(C(=O)NCc2ccco2)c(=O)c2ccc(C)nc21,0.6,x,0.5,1.5,1.9,-1.6,0.5,-3.4
O=C(O)c1cc(-c2cccc([N+](=O)[O-])c2)n[nH]1,-4.3,-7.4%,-0.6,-2.5,-2.1,-0.8,-4.4,2.3
CCCCc1nnc(NC(=O)c2cccc(S(=O)(=O)N3CCN(C)CC3)c2)s1,-5.5,x,-0.4,-20.6,2.9,2.0,0.2,-5.3
COc1ccccc1C(=O)Nc1cc2c(cc1C(=O)O)OCCCO2,-8.3,x,0.5,6.5,u,2.8,-1.7,-2.4
COC(=O)CCC/C=C1\SC[C@@H](NC(=O)c2ccccc2)C1NC(C)=O (stereo partly drawn),-2.4,-3.6%,-0.5,-29.3,2.0,4.8,-1.9,5.7
N/C(=N\OC(=O)/C=C/c1ccccc1)c1ccccn1,10.3,-1.9%,-7.8,-33.2,-0.4,2.1,0.3,-5.7
CC1CCCN(S(=O)(=O)c2ccc(NC(=O)Cn3nnc(-c4ccccc4F)n3)cc2)C1 (stereo not drawn),7.4,6.6%&5.7%,0.2,-1.1,3.5,-4.1,1.5,-23.9
COc1ccc(-n2c(SCC(=O)N(C)c3ccccc3)nc3c([nH]c4ccccc43)c2=O)cc1OC,-1.2,x,-0.7,-3.4,0.0,-0.8,-5.5,-0.1
COc1cc(CN2CCCCCC2)cc(OC)c1O,-2.8,x,1.3,-11.3,-0.1,4.4,1.2,20.3
C/C(=N\NC(=O)c1c[nH]c2ccccc12)c1ccc(C)s1,6.3,-3.0%,-0.5,28.2,-1.4,6.1,-0.8,3.9
COc1ccc(N2CCN(S(C)(=O)=O)CC2)cc1,-1.6,8.1%,x,-4.2,-5.2,2.2,x,-0.3
Cc1nc(NC(=O)c2cccc(-c3cc4ccccc4oc3=O)c2)ccc1Br,0.5,0.5%,0.0,-22.5,1.8,x,x,46.6
O=C(c1cc(Br)ccc1Cl)N1CCN(c2ccccn2)CC1,3.3,x,0.0,-4.9,2.7,1.7,0.6,-1.4
CCOc1ccc(CN(C)CC(=O)NCc2ccccc2)cc1,-4.0,x,0.1,-4.9,-5.2,-2.7,u,1.9

# Retrieved by compound from above:
SMILES,Beta apoptosis,Vif A3G,Bfl-1 A1 inh,T cruzi repl,RanGTP-Impb inh,LANA-H2A inh,MLL AF4-AF9 inh,Calb FLC
CCCCc1nnc(NC(=O)c2cccc(S(=O)(=O)N3CCN(C)CC3)c2)s1,-5.5,x,-0.4,-20.6,2.9,2.0,0.2,-5.3
COC(=O)c1ccccc1NC(=S)N1CCN(c2ccccc2)CC1,-8.2,0.2%,0.0,2.3,2.4,1.1,5.2,8.3

# New compounds follow.
SMILES,Beta apoptosis,Vif A3G,Bfl-1 A1 inh,T cruzi repl,RanGTP-Impb inh,LANA-H2A inh,MLL AF4-AF9 inh,Calb FLC
CC1CCCC(NC(=S)NC(=O)c2ccccc2Br)C1C (stereo not drawn),x,x,0.2,15.7,4.4,-0.6,x,6.6
CC(=O)c1cccc(OCCN2C(=O)NC(C)(C)C2=O)c1,-8.5,32.2%,0.5,-7.2,-1.7,-1.1,x,-1.7
COc1ccccc1C1N(c2ccc(Cl)cc2)C(=O)C2CCCN21 (stereo not drawn),2.6,22.7%,1.1,14.0,0.7,-3.1,x,0.6
O=C(CSc1ccc(S(=O)(=O)N2CCOCC2)cn1)Nc1ccc(F)c(F)c1,6.3,x,0.5,x,x,3.6,-4.2,x
O=[N+]([O-])c1ccc(-c2nc(Nc3ccc(O)cc3)c3ccccc3n2)cc1,8.1,-11.0%,-0.9,17.6,-1.6,-4.2,1.1,3.3
C=C(C)CSc1nc2nc(C)cc(C)n2n1,0.6,2.9%,1.1,-2.5,-10.4,0.2,x,-2.8
CCN1CCN(c2ncnc3scc(-c4ccc(OC)cc4)c23)CC1,1.5,-5.7%,1.5,10.0,6.1,1.5,1.2,-20.9
Cc1oc(-c2cccs2)nc1CS(=O)CC(=O)NC1CCCCCC1 (stereo not drawn),-12.3,15.8%,0.5,31.9,-1.8,4.2,0.0,-3.9
O=C(O)CN1CCCCCC1=O,-8.3,4.7%,-0.4,-9.1,2.0,14.1,-0.9,5.3
COc1ccc(N2CCN(c3ccc(NC(=O)/C=C\C(=O)O)cc3)CC2)cc1,4.2,x,1.0,2.0,0.6,-1.0,1.5,-7.7

# Just Vif A3G and T cruzi repl, for some of the entries so far:
SMILES	Vif A3G	T cruzi repl
O=C(CCn1cncn1)N1CCCC(N2CCN(c3ccc(F)cc3)CC2)C1 (stereo not drawn)	x	-8.3
CN(CCNC(=O)c1cc2c(=O)n(C)c3ccccc3c2n1C)Cc1ccccc1	0.0%	46.5

# Bioassay records (PubChem)
